PrP 5UTR inh: inhibition of PrP 5' UTR reporter expression | cell-based PrP 5' UTR mRNA reporter, plate reader | inhibition, % (test concentration not listed) | actives 0.35% (n = 340,000) | AID 488862;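 active = every replicate at 50% or more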;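 also: 0 = median of the neutral control wells; tested in H4 reporter cells; numbers are from one replicate; inactives centre near -14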
Autofluor counter: counter-screen for toxin protease inhibitors: compound fluorescence | compound autofluorescence counterscreen, microsphere flow cytometry; hits give high values | fluorescence intensity (concentration not given with the values) | actives 3.1% (n = 360,000);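 active = at least 3 SD above the mean of all compounds, about 16000 in these data; inconclusive = too few beads counted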;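 also: 100 nL of 1 mM stock went into each well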
Active calls of the source: *; u = inconclusive. A portion of the library; rates above refer to the full screens.

SMILES | PrP 5UTR inh | Autofluor counter
COC(=O)[C@H]1C[C@H](C(=O)O)[C@@H](C)C1(C)C | -14 | 2763
COc1ccc(S(=O)(=O)N(C)C[C@H]2Oc3ccc(NC(=O)Nc4ccc(C(F)(F)F)cc4)cc3C(=O)N([C@H](C)CO)C[C@@H]2C)cc1 | -16 | 3992
CCN1C[C@@H]2[C@@H]3C(=O)N(C)C(=O)[C@@H]3[C@](C)(C1=O)N2C(=O)c1ccc(Cl)c(Cl)c1 | -8 | 3679
COc1cc(-c2ccc3oc(-c4cccc(C)c4)c(C#CC4(O)CCCCC4)c3c2)cc(OC)c1OC | -9 | 2654
C=CCOC(=O)C(C#N)c1nc2ccccc2nc1N1CCN(Cc2ccccc2)CC1 (stereo unspecified) | -5 | 5204
CN1C[C@@H]2[C@@H]3C(=O)N(C)C(=O)[C@@H]3[C@](Cc3ccccc3)(C1=O)N2C(=O)c1ccccc1 | -15 | 3955
C[C@H](NC(=O)c1nc[nH]c1C(=O)N1CCN(C(=O)OC(C)(C)C)CC1)c1ccccc1 | -12 | 4105
CN(C)c1ccc(C=c2c3ccccc3n3c2c2ccccc2[n+]3C)cc1 | 24 | 1668
COc1cc(C2c3cc4c(cc3OC(NCc3ccccc3)C2C)OCO4)cc(OC)c1OC (stereo unspecified) | 31 | 3814
CC1C(=O)OC2CCN3CC=C(COC(=O)C(C)(O)C1(C)O)C23 (stereo unspecified) | -4 | 6340
COc1cc(C(C)=O)cc(OC)c1O | -29 | 5613
CCCCOC(=O)c1ccccc1N | -7 | 4275
O=S(=O)(c1cccc(-c2nnco2)c1)N1CCCC1 | -20 | 4500
C1CCC(NC2CCCCC2)CC1 | -11 | 5832
O=C(COC(=O)c1ccc([N+](=O)[O-])s1)c1ccc[nH]1 | -18 | 2865
O=C(c1cccs1)N1CC=C(c2ccccc2)CC1 | 51 | 3604
Cc1ccc(C(=O)OCC(=O)NCc2ccco2)cc1C | -13 | 4006
CC(C)(C)OC(=O)C[C@@H]1C/C=C\C[C@H](CC(=O)N(CCO)Cc2ccccc2)C(=O)N2CCC[C@H]2COC1=O | 1 | 2885
O=C1NC(=O)C2(CCN(c3ccccc3)CC2)C(=O)N1 | -13 | 3300
COc1ccccc1C=NN1C(=O)CSC1=S | -22 | 3640
CCOC(=O)[C@H]1[C@H]2COc3ccc(C)cc3[C@@H]2N2C(=O)CN(C)C(=O)[C@@]12C | -8 | 3741
Cc1ccc(S(=O)(=O)Nc2ccc3c(c2)CC(=O)N([C@H](C)CO)C[C@@H](C)[C@H](CN(C)S(=O)(=O)c2ccccc2)O3)cc1 | -17 | 3483
CC1CCOC(=O)C=CC=CC(=O)OC2CC3OC4C5OC5(C)C(O)CC4(COC(=O)C1O)C2(C)C31CO1 (stereo unspecified) | 82* | 3272
O=C(COC(=O)c1c[nH]c2ccccc12)NC1CCCCC1 | -5 | 3614
CCOC(=O)[C@H]1[C@H]2COc3ccc(OC)cc3[C@H]2N2C(=O)CN(Cc3ccccc3)C(=O)[C@@]12C | -5 | 3033
C#CCOCCOCCOCCNc1nc(N2CCN(C(=O)[C@H]([C@@H](C)CC)n3cc(CCCCN)nn3)CC2)nc(N2CCN(C(=O)[C@H]([C@@H](C)CC)n3cc(CCCN=C(N)N)nn3)CC2)n1 | -8 | 4503
COCCN=c1scc(-c2ccco2)n1/N=C/c1ccc(O)c(O)c1O | -13 | 4114
Cc1ccc(C(=O)OCC(=O)NCC2COc3ccccc3O2)cc1 (stereo unspecified) | -15 | 3652
O=C(C[C@H]1C/C=C\CC[C@H](Cc2ccc(F)cc2)C(=O)OCCNC1=O)NCCO | -21 | 3519
CC(C)n1cnc2c(NCc3ccccc3)cc(OCC3CCN(C)CC3)cc21 | -19 | 5085
C#CCOCCOCCOCCNc1nc(N2CCN(C(=O)[C@H]([C@@H](C)CC)n3cc(CCCCN)nn3)CC2)nc(N2CCN(C(=O)[C@H](C)n3cc(CCCN=C(N)N)nn3)CC2)n1 | -4 | 4105
CCOC(=O)C(Cc1ccc(O)c([N+](=O)[O-])c1)N1C(=O)c2ccccc2C1=O (stereo unspecified) | 10 | 3979
C=CC[C@H](CC(=O)N(CCO)Cc1ccccc1)C(=O)N[C@H](COC(=O)[C@@H](CC=C)CC(=O)OC(C)(C)C)Cc1ccccc1 | -6 | 3937
C[N+](C)(C)CC1CCCC(C[N+](C)(C)C)C1=O (stereo unspecified) | -47 | 3744
Nc1nc(=S)c2ncn(C3OC(CO)CC3O)c2[nH]1 (stereo unspecified) | -6 | 4095
Cc1ccc(N(Cc2ccccc2)C(=O)c2ccc(C)c(S(=O)(=O)N3CCOCC3)c2)cc1 | -4 | 3693
C[C@H](CO)N1C[C@H](C)[C@@H](CN(C)S(=O)(=O)c2ccc(F)cc2)Oc2c(NC(=O)c3ccncc3)cccc2C1=O | -15 | 3008
COC(=O)C1=C(c2ccc(OC)c(OC)c2)C[C@@H]2CC[C@H]1N2C(=O)NCCc1ccccc1 | -22 | 3510
COc1nc(NC2OC(CO)C(O)C(O)C2O)c(N)c(=O)[nH]1 (stereo unspecified) | -30 | 3687
COc1ccc(S(=O)(=O)N2CCCCC2)cc1NC(=O)CCC(=O)N1CCC(c2ccccc2)=N1 | -14 | 3930

Part of the list above, reformatted.
Every second line gives: PrP 5UTR inh | Autofluor counter
C#CCOCCOCCOCCNc1nc(N2CCN(C(=O)[C@H]([C@@H](C)CC)n3cc(CCCCN)nn3)CC2)nc(N2CCN(C(=O)[C@H]([C@@H](C)CC)n3cc(CCCN=C(N)N)nn3)CC2)n1
  -8 | 4503
COCCN=c1scc(-c2ccco2)n1/N=C/c1ccc(O)c(O)c1O
  -13 | 4114
Cc1ccc(C(=O)OCC(=O)NCC2COc3ccccc3O2)cc1 (stereo unspecified)
  -15 | 3652
O=C(C[C@H]1C/C=C\CC[C@H](Cc2ccc(F)cc2)C(=O)OCCNC1=O)NCCO
  -21 | 3519
CC(C)n1cnc2c(NCc3ccccc3)cc(OCC3CCN(C)CC3)cc21
  -19 | 5085

Complete entries from above.
Profile of CC(C)(C)OC(=O)C[C@@H]1C/C=C\C[C@H](CC(=O)N(CCO)Cc2ccccc2)C(=O)N2CCC[C@H]2COC1=O = PrP 5UTR inh = 1; Autofluor counter = 2885
Profile of C[N+](C)(C)CC1CCCC(C[N+](C)(C)C)C1=O (stereo unspecified) = PrP 5UTR inh = -47; Autofluor counter = 3744

Continuation:
SMILES | PrP 5UTR inh | Autofluor counter
COc1ccc(NC(=O)c2ccccc2NC(=O)C2CCCCC2C(=O)O)cc1 (stereo unspecified) | -34 | 4484
N=NC(=O)c1ccccc1Nc1c(O)[nH]c2ccccc12 | -23 | 3785
CCOc1cc(/C=N/NC(=O)c2ccccc2-n2cccc2)ccc1O | -15 | 7883
Cc1ccc(CN2CC[C@H]3C=CCc4cccc(c43)C2)cc1 | -10 | 4018
C/C(=N\NC(=O)COc1cccc(Br)c1)c1ccc2c(c1)OCCO2 | -17 | 3763
C[C@H](CO)N1C[C@H](C)[C@@H](CN(C)S(=O)(=O)c2ccccc2)Oc2c(NC(=O)C3CC3)cccc2C1=O | -5 | 3954
O=C(C=Cc1ccccc1)c1cccs1 | -53 | 4317
COC(=O)[C@]1(C)N[C@H](c2ccc(-c3cccc(Cl)c3)c(OC)c2)[C@@H]2C(=O)N(C)C(=O)[C@@H]21 | 9 | 3984
O=C(C[C@H]1C/C=C\C[C@@H](Cc2ccc(F)cc2)C(=O)O[C@H](c2ccccc2)CNC1=O)NCCO | -14 | 4067
O=C(O)CC/C(=N\Nc1ccc(S(=O)(=O)N2CCCC2)cc1[N+](=O)[O-])c1cccs1 | -11 | 5749
COc1ccc(-n2sc3ccc(F)cc3c2=O)cc1 | -21 | 2986
CC(C)C(=O)N1CCN(c2ccccc2NC(=O)c2ccc3c(c2)OCCO3)CC1 | -6 | 3756
CCN(C(C)=O)c1cnc(C=NNC(N)=S)c2ccccc12 | 16 | 2970
CC(C)C1(c2ccsc2)NC(=O)NC1=O (stereo unspecified) | -31 | 3662
COC(=O)C1=C(c2ccc(C(C)=O)cc2)C[C@@H]2CC[C@H]1N2C(=O)NCCCOC(C)C | -9 | 3884
O=c1c2ccccc2nnn1-c1ccccc1 | -38 | 4211
CN(C)C1=NC[C@H](Cc2ccccc2)N1CCCCc1ccccc1 | -24 | 4357
N/C(Cn1nnc(-c2ccccc2)n1)=N\O | -8 | u
O=[N+]([O-])/C=C/c1c(Cl)cccc1Cl | -33 | 3709
COc1ccc(S[C@@H](CCN2CC[C@H](O)CCC2=O)c2ccccc2)cc1 | -22 | 3646
O=C(CCC(=O)N1CCN(S(=O)(=O)c2ccc([N+](=O)[O-])cc2)CC1)N1CCOCC1 | -1 | 3666
COc1ccc(C2C(=O)NN=C2C)cc1 (stereo unspecified) | -10 | 2892
CC(C)N(Cc1ccccc1)C(=O)COC(=O)c1cc[n+]([O-])cc1 | -10 | 3933
COc1ccccc1C=NN=C1c2ccccc2-c2ccccc21 | 7 | 3740
CCOC(=O)[C@H]1[C@H]2COc3ccc(Cl)cc3[C@@H]2N2C(=O)CN(CC3CCCO3)C(=O)[C@@]12C (stereo partly specified) | -3 | 3975
O=C(Cn1cc(COc2ccccc2[N+](=O)[O-])nn1)c1ccc(O)cc1 | -23 | 3773
CN1C[C@@H]2[C@@H]3C(=O)N(C)C(=O)[C@@H]3[C@](C)(C1=O)N2C(=O)c1ccc(Br)cc1 | -17 | 3600
Cc1ccc2[nH]c(O)c(N=Nc3ccccc3[N+](=O)[O-])c2c1 | -63 | 3889
O=C1NC(=O)N(Cc2ccccc2)C(=O)C1Cc1ccccc1 (stereo unspecified) | -9 | 3872
CC(C)[Si]1(C(C)C)OCC2OC(n3cnc4c(N)ncnc43)C(N)C2O[Si](C(C)C)(C(C)C)O1 (stereo unspecified) | -27 | 4070
O=c1c(O)c(-c2cc(O)c(O)c(O)c2)oc2cc(O)cc(O)c12 | -24 | 5846
NC(=Nc1ccccc1)NN=Cc1c[nH]c2ccccc12 | 33 | 4004
O=C(OCC(=O)N1CCOCC1)c1ccc2ccccc2c1 | -34 | 3166
N=C(N)SCc1ccc(Cl)c2ccccc12 | 29 | 4168
S=C(c1cccs1)N1CCN(c2ccccc2)CC1 | -28 | 2847
O=C(O)c1ccc(NN=Cc2cc(=O)[nH]c(=O)[nH]2)cc1 | -18 | 4067
c1cnc(OCCN2CC2)cn1 | -20 | 2878
Cc1c(C(C)C[C@H](C)O)oc(=O)c2c1Oc1c(C)c(C(C)C[C@H](C)O)oc(=O)c1C2 (stereo partly specified) | -6 | 3782
CN(C)c1ccc(C=c2c3ccccc3n3c2c2c([n+]3C)CCCC2)cc1 | 4 | 2882
Oc1cc(-c2ccc(N3CCCCC3)nc2)cc2cccnc12 | -64 | 3708
COc1c(F)cccc1C1=CC(=O)C[C@H](c2ccc3c(c2)OCO3)C1 | -4 | 3394
O=C(C[C@H]1C/C=C\CC[C@H](Cc2ccc(F)cc2)C(=O)OC[C@@H]2CCCN2C1=O)N[C@H](CO)Cc1ccccc1 | 8 | 3634
COc1ccc(-c2sc3ccccc3c2/C=C/c2ccc(N)cc2)cc1 | -19 | 4317
CN(C)c1nc2c(N)ncnc2n1C1OC(CO)C(O)C1O (stereo unspecified) | -10 | 3980
O=C1C=C(c2cc3ccccc3s2)C[C@@H](c2ccc3c(c2)OCO3)C1 | -17 | 3008
O=C(COC(=O)c1ccco1)Nc1ccc(Cl)cn1 | -5 | 2746
CN(C(=O)c1cccc(NC(=O)Cc2cccc(NC(=O)C3CCCN(C(=O)C4CCCC4)C3)c2)c1)C1CCC1 (stereo unspecified) | 3 | 3749
O=C1C=CC(=O)C(CNc2ccc(C(=O)OCc3ccccc3)cc2)=C1 | -25 | 3338
CCCC(=O)NC1CCc2cc(OC)c(OC)c(OC)c2-c2ccc(OC)c(=O)cc21 (stereo unspecified) | 50 | 3047
C=CCC[C@@H](Cc1ccc(F)cc1)C(=O)OC[C@@H](Cc1c[nH]c2ccccc12)NC(=O)[C@@H](CC=C)CC(=O)N[C@H](CO)Cc1ccccc1 | -11 | 3583
O/N=C1/CC/C(=N\O)c2nn(-c3ccccc3)nc21 | -20 | 8702
O=C1C=C(c2cc(F)ccc2F)C[C@@H](c2ccc(F)cc2)C1 | -8 | 3751
O=c1cc(CCc2ccccc2)oc2cccc(O)c12 | 7 | 4192
CCN[C@H]1CN(CCCOC)S(=O)(=O)c2sc(S(N)(=O)=O)cc21 | -17 | 4449
COC(=O)c1ccc(NC(=O)CCN2C(=O)C3CC=CCC3C2=O)cc1 (stereo unspecified) | -8 | 3861
O=C(NC[C@@H]1CC[C@@H](Cc2ccc(-c3ccccc3)cc2)O1)Nc1ccc(Br)cc1 | -16 | 3503
CCC(=O)NC(c1ccc(C)cc1)c1cc(Cl)c2cccnc2c1O (stereo unspecified) | 10 | 3234
CN1C[C@H]2CON(C)[C@H]2C[C@H]1c1cccc(-c2ccc(C#N)cc2)c1 | -2 | 3086
CCCCCCSc1ccc([C@@H]2[C@H]3C(=O)N(CC)C(=O)[C@H]3[C@]3(C(=O)OC)CCCCN23)cc1OC | -11 | 6926
CCC(C)CCN1C(N(C)C)=NC[C@@H]1C (stereo partly specified) | -15 | 3985

(next part)
SMILES | PrP 5UTR inh | Autofluor counter
Cc1cc2c(SCC(=O)Nc3cccc(O)c3)ncnc2s1 | -7 | 3151
C[C@H]1COC(=O)[C@H](Cc2ccc(F)cc2)CC/C=C/C[C@@H](CC(=O)N[C@@H](CO)Cc2ccccc2)C(=O)N1 | -14 | 2925
CCN1C[C@@H]2[C@@H]3C(=O)N(Cc4ccccc4)C(=O)[C@@H]3[C@](C)(C1=O)N2C(=O)c1ccc(C)cc1 | -11 | 4188
O=C(NC1CCCc2ccccc21)c1cccc(F)c1 (stereo unspecified) | -18 | 3625
O=S(=O)(/C=C/C=C/S(=O)(=O)c1ccccc1)c1ccccc1 | -10 | 3065
CN(CCc1ccccc1)C(=O)c1ccc(NC(=O)Cc2ccc(NC(=O)C3CCCN(C(=O)C4CCC4)C3)cc2)cc1 (stereo unspecified) | -2 | 3849
CCCOc1cccc(-c2cc(C(=O)N/N=C/c3cccnc3)c3ccccc3n2)c1 | -4 | 11991

Assay outcomes (PubChem)
